gsp agonist: activates gsp, the McCune-Albright syndrome mutation; gsp mutant cells, cAMP HTRF, 30 min; control for the full effect not named in the record; Potency, µM (highest dose often 76.9 µM), for inactives: top-dose activation (cAMP increase), usual class: activators; actives 0.13% (n = 340,000); AID 624287; active = well fitted activation curve with a large enough effect; inconclusive = small, poorly fitted or top-dose-only effect, or another doubt; inactive = no such curve, though single readings can be large or run the other way; cell line not stated here;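 note: phosphodiesterase inhibitor Ro 20-1724 added with compounds to block cAMP breakdown; potency is the fitted concentration of half-maximal effect; nearly all actives have a fitted effect of over 60% in size; about a fifth of the inactives were tested at one dose only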
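Cells stably selected in G418 were plated at 2000/well, grown 16-24 hr, then given compounds in DMSO with the PDE inhibitor […] (300 uM solution added) for 30 min at 37C; cAMP was read by HTRF.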
CtBP-E1A blk: CtBP/E1A binding inhibition; actives 0.49% (n = 340,000); AlphaScreen GST-E1A/His-CtBP binding, 1536-well; active compounds read low; control for the full effect not named in the record; activity change, % (no concentration beside the values); in the data active means activity change below about -65%; inconclusive means about -30% to -65%; inactive means above about -30%; note: % is set by controls: 0 for no effect and ±100 for the full control effect
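GST-E1A and His-tagged CtBP (125 nM each as 5X stock) were preincubated with pin-transferred compound for 2 h at 37 °C in the dark, then glutathione donor and nickel acceptor beads were added for 1 h before AlphaScreen reading.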
TRPV1 PAM: human TRPV1 potentiation | Q8NER1 | potentiation, % at 8.33 µM | actives 0.02% (n = 320,000) | AID 540277 | TRPV1-expressing cells, Fluo-8 calcium influx, capsaicin EC20 potentiation; host cell line not named in the record; control for the full effect not named in the record; active means potentiation above 80%; inconclusive means 30% to 80%; inactive means below 30%; note: 0% is about no effect
Target sequence (Q8NER1 whole entry, looked up): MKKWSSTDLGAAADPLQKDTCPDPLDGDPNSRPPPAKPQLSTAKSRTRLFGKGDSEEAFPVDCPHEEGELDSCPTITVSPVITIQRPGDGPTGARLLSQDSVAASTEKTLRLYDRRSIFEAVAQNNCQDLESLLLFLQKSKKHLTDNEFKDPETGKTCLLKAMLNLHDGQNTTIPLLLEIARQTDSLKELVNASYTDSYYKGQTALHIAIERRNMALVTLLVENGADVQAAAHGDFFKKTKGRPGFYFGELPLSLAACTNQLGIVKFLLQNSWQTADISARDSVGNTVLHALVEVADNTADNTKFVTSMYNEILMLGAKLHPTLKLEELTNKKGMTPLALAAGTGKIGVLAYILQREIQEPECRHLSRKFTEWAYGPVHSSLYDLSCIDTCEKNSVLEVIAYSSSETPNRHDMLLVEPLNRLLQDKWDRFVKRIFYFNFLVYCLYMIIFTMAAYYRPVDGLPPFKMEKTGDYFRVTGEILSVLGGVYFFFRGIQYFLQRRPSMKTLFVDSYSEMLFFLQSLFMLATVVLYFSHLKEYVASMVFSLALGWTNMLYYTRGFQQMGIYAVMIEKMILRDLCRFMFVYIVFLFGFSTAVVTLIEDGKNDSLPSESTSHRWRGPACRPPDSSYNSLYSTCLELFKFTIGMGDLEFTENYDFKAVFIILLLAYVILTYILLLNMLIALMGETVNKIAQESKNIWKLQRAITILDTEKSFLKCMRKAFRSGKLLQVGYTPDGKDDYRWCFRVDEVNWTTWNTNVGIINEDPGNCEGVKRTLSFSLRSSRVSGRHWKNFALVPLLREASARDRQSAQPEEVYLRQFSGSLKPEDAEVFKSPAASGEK
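Cells expressing TRPV1 were dye-loaded with Fluo-8 and read kinetically: 10 s baseline, 3 min after compound (agonist portion), then 2 min after EC20 capsaicin (allosteric enhancer portion). Calcium-bound dye fluorescence at 480/520 nm.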
ClpP mod: qHTS Assay for Activators of ClpP; purified B. subtilis ClpP, FRET peptide cleavage, 20 min; Potency, µM (doses to about 57.5 µM), without a hit: top-dose activity change, negative = active; actives 1.9% (n = 340,000); AID 651965, 2013; active = well fitted falling curve with a large enough effect; inconclusive = small, poorly fitted or top-dose-only effect; inactive = no such curve, though single readings can be large or run the other way; note: potency is the fitted concentration of half-maximal effect; the source files actives as falling curves though it sought activators and does not explain the sign; nearly all actives have a fitted effect of over 65% in size; many hits overshoot -100%
Target sequence (P80244 whole entry, looked up): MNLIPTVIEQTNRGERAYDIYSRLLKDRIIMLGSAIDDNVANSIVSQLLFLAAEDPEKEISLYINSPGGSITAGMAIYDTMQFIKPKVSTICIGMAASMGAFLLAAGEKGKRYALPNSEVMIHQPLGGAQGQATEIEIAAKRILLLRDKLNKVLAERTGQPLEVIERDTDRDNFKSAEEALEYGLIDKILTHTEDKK
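Buffer: 100 mM Tris/HCl pH8, 100 mM KCl, 0.05% low protease BSA, 2.5% glycerol, 0.01% Tween-20. ClpP 10 microg/mL final; 20 min RT; delta FRET normalized to ADEP and DMSO controls.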
Menin MLL FP FL: inhibitors of human menin-MLL interaction, wild-type MLL peptide | Fluorescence polarization, fluorescein-MLL peptide displacement from menin | 290,000 tested, under 10 active | FP activity change, % at 61.4 µM | AID 1766; inconclusive = falling polarisation curve, or a change in total fluorescence; inactive = total fluorescence flat and polarisation flat or rising; no compound was filed as active; the % refers to the polarisation; negative = inhibition;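 note: % of control where 0% means no effect; inhibitors lower the polarisation; unlabelled MLL peptide was the positive control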
Sfp PPTase inh: blocks B. subtilis Sfp PPTase activity | Q9F4F7 | Biochemical Sfp PPTase activity, qHTS | Potency, µM, for the others: max response, negative = inhibition, usual class: inhibitors | actives 3.5% (n = 310,000); active = well fitted inhibition curve with a large enough effect; inconclusive = small, poorly fitted or top-dose-only effect, or another doubt; inactive = no such curve, though single readings can be large or run the other way;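 note: the enzyme is Sfp with the accession as filed and its product quenches rhodamine fluorescence; potency is the fitted concentration of half-maximal effect; 0% = enzyme reaction without inhibitor and -100% = no enzyme wells; top concentration of the series not given in the record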
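Fluorescence-quenching assay with 15 nM Sfp, 5 uM rhodamine-CoA and 12.5 uM BHQ-2-labelled ybbR peptide in pH 7.6 Hepes/MgCl2 buffer. Enzyme was pre-incubated with compound for 15 min at room temperature. Rate was taken from the 30-min fluorescence change (525/598 nm).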
gsp antagonist: gsp mutant antagonism. Potency, µM (top dose mostly 76.9 µM), for inactives: top-dose activity change, negative = inhibition, most hits filed as inhibitors. actives 0.4% (n = 340,000). gsp-mutant cells, cAMP HTRF, 30 min; control for the full effect not named in the record; active = falling curve of any shape with a large fitted effect; inconclusive = falling curve, mostly with a smaller effect; inactive = flat or rising curve; cell line not stated here;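 note: intracellular cAMP measured with PDE inhibitor Ro 20-1724 present during compound exposure; potency is the fitted concentration of half-maximal effect; % is set by controls: 0 for no effect and ±100 for the full control effect; nearly all actives have a fitted effect of over 65% in size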
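Cells in G418 medium, seeded 16-24 h, 37C; buffer exchange to DPBS + 1 mM CaCl2, 0.5 mM MgCl2, 0.05% BSA; cpds in DMSO + […] (300 uM stock), 30 min 37C; HTRF cAMP detection.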
Numbers without * were called inactive; u = inconclusive; x = no result given; [ ] = another dose, or the depositor's remark. Hits appear at their usual frequency (roughly 5.3% active in at least one column).

SMILES	gsp agonist	CtBP-E1A blk	TRPV1 PAM	ClpP mod	Menin MLL FP FL	Sfp PPTase inh	gsp antagonist
C=CCn1c(-c2cccc([N+](=O)[O-])c2)n[nH]c1=S	-3%[15.4 µM]	1	-9	x	-2.2	u	-1%
COC(=O)c1cc(S(=O)(=O)NCc2ccccc2Cl)c[nH]1	u	2	-3	-1.0%	-0.8	14%	0%
CC(NS(=O)(=O)c1ccc2[nH]c(=O)[nH]c2c1)c1ccc(F)cc1 (stereo not drawn)	-9%	-11	x	-1.1%	x	x	x
Cc1ccc(-c2cc(C(=O)N3CCOCC3)c3ccccc3n2)o1	u	2	x	x	x	x	0%
COc1cc(/C=N/NC(=O)CCC(=O)NCc2ccccc2)cc(OC)c1OC	0%	-66*	u	-7.8%	3.3	11%	7%
CCc1ccc(/C=N/NC(=O)c2nnn(-c3nonc3N)c2C(C)C)cc1	-18%	0	-40	x	x	7%	5%
O=[N+]([O-])c1ccc(N2CCN(S(=O)(=O)c3ccc4ccccc4c3)CC2)cc1NCc1ccco1	4%	2	-13	-2.1%	1.8	22%	-5%
COC(=O)C1=CN(Cc2ccccc2)C=C(C(=O)OC)C1c1ccc(OC)c(OC)c1	0%	x	-17	-19%	-8.8	-6%	6%
Cn1c(=O)c2cc(S(=O)(=O)NCCC(=O)NC3CCCCCC3)ccc2n(C)c1=O	12%	9	-5	-6.5%	-0.4	4%	-3%
Brc1ccc(-c2cnnc(N3CCCC3)n2)cc1	-55%[inhibitor]	-13	-23	3.2%	5.9	-30%	-3%
Cc1cc[n+](CC(=O)c2cccc([N+](=O)[O-])c2)c2ccccc12	0%	x	5	-17%	3.8	-1%	-3%
CSCCC(NC(=O)c1ccccc1)C(=O)N1CC(C)OC(C)C1 (stereo not drawn)	-9%	2	9	1.5%	x	x	0%
COc1ccccc1CNC(=O)Cn1cccc1C(=O)c1ccccc1C	-34%	0	-12	-0.8%	x	5%	2%
CCOc1cc(N2CCOCC2)c(OCC)cc1NC(=O)c1ccccc1	-8%[15.4 µM]	-13	-6	x	-0.9	0%	-3%
O=C(NCC1CCCO1)c1cc2ccccc2[nH]1 (stereo not drawn)	-8%	-1	7	u	1.8	5%	8%
CCc1ccc(N(CC)C(=O)Cc2c(C(=O)O)n(C)c3ccccc23)cc1	8%[15.4 µM]	5	16	-4.0%	-8.1	14%	-9%
CCCCN(c1ccccc1)S(=O)(=O)c1ccc2c(c1)CCN2C(=O)CCC(=O)O	-40%[inhibitor]	-4	-15	-1.2%	-1.6	7%	-33%
O=C(Nc1ccccn1)c1ccc(Cl)c(S(=O)(=O)N2CCc3ccccc32)c1	19%	13	7	-1.1%	x	x	u
CCn1c(C)cc2c(c1=O)C(c1ccc3c(c1)OCO3)C(C#N)=C(N)O2 (stereo not drawn)	-2%	-8	0	-4.0%	0.9	0%	7%
Cc1nc2ccccn2c1C(=O)N=Nc1c(O)n(CCC(C)C)c2ccccc12	27%	-1	-3	-1.8%	1.3	22%	11%
CN(C)C(=S)Nc1ccc(N2CCOCC2)cc1	-16%	10	x	1.1%	1.6	-12%	12%
CCn1c(SCC(=O)Nc2sc3c(c2C#N)CCC(C(C)(C)C)C3)nnc1-c1ccco1 (stereo not drawn)	7%	-2	15	0.3%	7.1	u	4%
COCc1cc(C)nc(OCC(=O)N/N=C/c2ccc(C)o2)c1C#N	u	10	26	-18%	-0.3	4µM*	4%
Cc1ccccc1CC1(CO)CCCN(Cc2ccc(C#CC(C)(C)O)cc2)C1 (stereo not drawn)	0%	3	-6	x	u	-13%	13%
CCCCOC(=O)Cn1cnc2ccc(Br)cc2c1=O	11%	9	-23	-0.4%	5.2	3%	6%

Given field by field: part of the list above
> CCc1ccc(/C=N/NC(=O)c2nnn(-c3nonc3N)c2C(C)C)cc1
  gsp agonist = -18%	CtBP-E1A blk = 0	TRPV1 PAM = -40	ClpP mod = x	Menin MLL FP FL = x	Sfp PPTase inh = 7%	gsp antagonist = 5%
> CCCCOC(=O)Cn1cnc2ccc(Br)cc2c1=O
  gsp agonist = 11%	CtBP-E1A blk = 9	TRPV1 PAM = -23	ClpP mod = -0.4%	Menin MLL FP FL = 5.2	Sfp PPTase inh = 3%	gsp antagonist = 6%
> Cc1ccccc1CC1(CO)CCCN(Cc2ccc(C#CC(C)(C)O)cc2)C1 (stereo not drawn)
  gsp agonist = 0%	CtBP-E1A blk = 3	TRPV1 PAM = -6	ClpP mod = x	Menin MLL FP FL = u	Sfp PPTase inh = -13%	gsp antagonist = 13%

Next part
SMILES	gsp agonist	CtBP-E1A blk	TRPV1 PAM	ClpP mod	Menin MLL FP FL	Sfp PPTase inh	gsp antagonist
COc1ccc(-c2nn(-c3ccccc3)cc2/C=C(/C#N)C(N)=O)cc1[N+](=O)[O-]	23%	1	-2	-6.0%	0.3	-1%	u
O=C(O)c1ccccc1N/N=C\c1ccnc2ccccc12	-18%	-2	9	-0.9%	u	12%	u
Cc1cc(C(=O)Nc2ccccc2C)n(-c2ccccc2)n1	-8%[15.4 µM]	10	2	-0.9%	-0.4	12%	6%
COc1ccc(OC)c(CN2CCN(C(=O)c3cc(S(=O)(=O)N4CCOCC4)ccc3C)CC2)c1	-13%	3	x	-1.3%	x	x	-2%
CCN(Cc1cccs1)C(=O)CN1C(=O)NC(c2ccccc2)(c2ccccc2)C1=O	-1%	x	3	-1.3%	x	x	-7%
Cc1ccc(O)c(NS(=O)(=O)c2cccc3nsnc23)c1	8%	-15	-14	x	-0.1	-6%	3%
CCN1CCN(Cc2c(O)ccc3c(=O)c(-c4ccccc4OC)coc23)CC1	22%	10	1	u	0.8	6%	6%
CC1(C)C[C@H]2C3=CCC4[C@@]5(C)CC[C@H](O)[C@](C)(CO)C5CC[C@@]4(C)[C@]3(C)C[C@H]3O[C@@H]1[C@H](O)[C@]32CO (stereo partly drawn)	x	10	-5	1.2%	x	x	-4%
CC1=C(C(=O)N2CCOCC2)CC(CC(=O)NCc2cccc3ccccc23)C(=O)N1CCCN1CCCC1=O (stereo not drawn)	-71%[inhibitor]	-25	x	-1.7%	x	x	x
CCn1cc(C2CC(=O)NC2=O)c2ccccc21 (stereo not drawn)	-23%	5	u	-1.3%	4.9	3%	9%
CCOc1ccc(-n2c(=S)sc3c(=O)n(-c4ccccc4)c(SCC(=O)O)nc32)cc1	u	-21	7	-1.5%	2.5	14%	-6%
Cc1nn(-c2ccccc2)c2c1C(c1ccco1)C(C#N)=C(N)O2 (stereo not drawn)	-11%	-21	4	0.1%	10	-27%	-14%
Cc1ccccc1OCCC(=O)Nc1ccc(S(=O)(=O)N2CCCC2)cc1	-28%	-11	x	0.7%	x	x	x
O=C1CSC(c2cccs2)N1c1ccccc1 (stereo not drawn)	-3%	-1	15	-0.6%	2.7	16%	-8%
CCOCCCNc1nc(=S)[nH]c2cc(OC)c(OC)cc12	9%	-92*	11	-4.8%	1.5	-3%	18%
CC(=O)c1cccc(NC(=O)Cn2nc(-c3ccccc3Cl)ccc2=O)c1	0%[15.4 µM]	-2	5	x	-10	17%	-37%
Cc1ccc(S(=O)(=O)NC(CC(=O)O)c2ccccc2)c(C)c1 (stereo not drawn)	8%	5	x	-0.1%	5.2	-2%	0%
COc1ccc(C2N3CC4(C)CN2CC(C)(C3)C4)cc1OC (stereo not drawn)	-9%	-2	19	-0.4%	0.4	19%	13%
Cc1cccc2cc3c(N)c(C#N)sc3nc12	u	-3	2	-3.1%	u	8%	8%
COc1ccc(CNc2nc(-c3cccnc3)nn2C(=O)c2cccs2)cc1	-19%	10	2	u	0.1	-21%	-14%
CCCc1ccc(C(=O)/C=C/N(C)C)cc1	9%	-11	-3	-3.1%	-1.0	-3%	-5%
CSc1nc(N2CCCC2)c2c(c1C#N)CC(C)(C)OC2	1%	10	12	-3.5%	0.7	3%	-19%
CC1SC(=Nc2ccccc2)N(S(=O)(=O)c2ccccc2)C1=O (stereo not drawn)	-34%	5	8	-0.7%	0.0	26%	4%
CC(=O)N1CCN(c2ccccc2NC(=O)c2ccc(Br)o2)CC1	15%[15.4 µM]	0	-23	1.4%	x	20%	-12%
C/C(=N/NC(=O)Cc1ccccc1)c1ccc(C)s1	20%[15.4 µM]	5	3	-1.8%	-5.5	1%	8%

Six consecutive compounds from above, quoted:
SMILES	gsp agonist	CtBP-E1A blk	TRPV1 PAM	ClpP mod	Menin MLL FP FL	Sfp PPTase inh	gsp antagonist
COc1ccc(CNc2nc(-c3cccnc3)nn2C(=O)c2cccs2)cc1	-19%	10	2	u	0.1	-21%	-14%
CCCc1ccc(C(=O)/C=C/N(C)C)cc1	9%	-11	-3	-3.1%	-1.0	-3%	-5%
CSc1nc(N2CCCC2)c2c(c1C#N)CC(C)(C)OC2	1%	10	12	-3.5%	0.7	3%	-19%
CC1SC(=Nc2ccccc2)N(S(=O)(=O)c2ccccc2)C1=O (stereo not drawn)	-34%	5	8	-0.7%	0.0	26%	4%
CC(=O)N1CCN(c2ccccc2NC(=O)c2ccc(Br)o2)CC1	15%[15.4 µM]	0	-23	1.4%	x	20%	-12%
C/C(=N/NC(=O)Cc1ccccc1)c1ccc(C)s1	20%[15.4 µM]	5	3	-1.8%	-5.5	1%	8%

Following part
SMILES	gsp agonist	CtBP-E1A blk	TRPV1 PAM	ClpP mod	Menin MLL FP FL	Sfp PPTase inh	gsp antagonist
O=c1[nH]c(SCc2ccccc2[N+](=O)[O-])nc2nc[nH]c12	-24%	x	6	-1.5%	-3.4	-3%	0%
O=C(c1cn(-c2ccccc2)nc1-c1cccs1)N(CCO)Cc1ccccc1	4%	8	19	-7.6%	0.1	-8%	-11%
COC(=O)C1(C(F)(F)F)C2C=CC(C2)N1S(=O)(=O)c1ccc(C)cc1 (stereo not drawn)	4%	5	1	x	x	-9%	-14%
CCc1nc(CNC(=O)C2CCC(=O)N(CCc3ccc(OC)cc3)C2)cs1 (stereo not drawn)	-15%	5	-13	-1.3%	x	9%	5%
O=C1CC(c2ccc3c(c2)OCO3)Sc2nc3ccccc3n21 (stereo not drawn)	3%	-3	20	-7.7%	2.0	-2%	u
CCOC(=O)C1CCN(S(=O)(=O)c2ccc(C)cc2)CC1	u	10	-8	0.1%	-0.1	9%	-1%
COc1ccc(NC(=O)CN(C)C(=O)c2cn(-c3ccccc3)nc2-c2ccc(F)cc2)cc1	u	-5	-7	-2.0%	x	x	u
